# Screening results deposited in PubChem by Broad Institute.
# Vaccinia stage = blocks a specific stage of Vaccinia orthopoxvirus infection, primary screen, cell-based, single point; Vaccinia-infected cells, mCherry/Venus stage reporter fluorescence; active compounds read low; some inactives read as strong as hits; activity change (mCherry), % (test concentration not listed); 89,000 tested, 0.01% active; AID 1053133, 2014;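 active = mCherry past -33% and 40 or more points under the early reporter, replicates agreeing; inconclusive = past -33% without that gap or agreement; tested in A549 cells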;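 also: scaled between vehicle wells and reference inhibitor wells; 23 nL library stock went into each well; one replicate is shown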
# Vaccinia stage Venus = also measured in Vaccinia stage; calls as there; activity change (Venus), %; measured here: Venus reporter, other viral stage;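 negative = less Venus signal; first of two replicates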
# Active calls of the source: *; u = inconclusive; x = not tested or not shown.
# Start of the data: the first 6 entries (preview)
Structure	Vaccinia stage	Vaccinia stage Venus
COCC#Cc1cnc2c(c1)C(=O)N([C@H](C)CO)C[C@@H](C)[C@@H](CN(C)C(=O)c1ccc3c(c1)OCO3)O2	12	8
O=C(C[C@@H]1CC[C@@H]2[C@H](COC[C@@H](O)CN2Cc2ccccc2)O1)N1CCOCC1	12	9
C[C@@H]1CN([C@@H](C)CO)C(=O)CCCn2nncc2CO[C@H]1CN(C)Cc1ccc2c(c1)OCCN2C	7	7
CN1[C@H](C(=O)NCC2CC2)[C@@H](CO)[C@@H]2Cn3c(ccc(-c4ccc(F)cc4)c3=O)[C@@H]21	0	-3
C[C@@H]1CCCCO[C@@H](CN(C)Cc2ccc(Cl)c(Cl)c2)[C@@H](C)CN([C@H](C)CO)C(=O)c2cc(NC(=O)c3ccncc3)ccc2O1	u	x
CCCN(C)C[C@H]1OCCCC[C@H](C)Oc2ccc(NS(=O)(=O)c3ccc(C)cc3)cc2C(=O)N([C@@H](C)CO)C[C@@H]1C	u	x

# All compounds of this part, repeating the preview:
Structure	Vaccinia stage	Vaccinia stage Venus
COCC#Cc1cnc2c(c1)C(=O)N([C@H](C)CO)C[C@@H](C)[C@@H](CN(C)C(=O)c1ccc3c(c1)OCO3)O2	12	8
O=C(C[C@@H]1CC[C@@H]2[C@H](COC[C@@H](O)CN2Cc2ccccc2)O1)N1CCOCC1	12	9
C[C@@H]1CN([C@@H](C)CO)C(=O)CCCn2nncc2CO[C@H]1CN(C)Cc1ccc2c(c1)OCCN2C	7	7
CN1[C@H](C(=O)NCC2CC2)[C@@H](CO)[C@@H]2Cn3c(ccc(-c4ccc(F)cc4)c3=O)[C@@H]21	0	-3
C[C@@H]1CCCCO[C@@H](CN(C)Cc2ccc(Cl)c(Cl)c2)[C@@H](C)CN([C@H](C)CO)C(=O)c2cc(NC(=O)c3ccncc3)ccc2O1	u	x
CCCN(C)C[C@H]1OCCCC[C@H](C)Oc2ccc(NS(=O)(=O)c3ccc(C)cc3)cc2C(=O)N([C@@H](C)CO)C[C@@H]1C	u	x
C[C@H](CO)N1C[C@H](C)[C@@H](CN(C)Cc2ccc(C(F)(F)F)cc2)Oc2c(NC(=O)Nc3ccc(F)cc3)cccc2C1=O	-28	-18
Cc1ccccc1-c1cnc2c(c1)C(=O)N([C@@H](C)CO)C[C@@H](C)[C@@H](CN(C)C(=O)CC1CC1)O2	-8	-4
O=C(Cc1ccncc1)NCC[C@@H]1CC[C@H](NC(=O)C2CCC2)[C@H](CO)O1	-14	-1
Cc1cc(C(=O)Nc2cccc3c2O[C@H](CN(C)Cc2ccc4c(c2)OCO4)[C@@H](C)CN([C@H](C)CO)C3=O)n(C)n1	-2	6
C[C@@H]1CN([C@H](C)CO)C(=O)c2cc(-c3cccc(C#N)c3)cnc2O[C@@H]1CN(C)C(=O)C1CCC1	20	8
CO[C@H]1CN(C)C(=O)c2cc(NC(=O)C3CC3)ccc2OC[C@H](C)N(Cc2cccc(F)c2)C[C@@H]1C	9	3
C[C@H](CO)N1C[C@H](C)[C@@H](CN(C)C(=O)Nc2ccc(C(F)(F)F)cc2)Oc2c(NC(=O)NC3CCCCC3)cccc2C1=O	-19	-10
O=C(Nc1ccccc1)N1CCCCN2[C@H](CO)[C@@H](c3ccc(C#CC4CC4)cc3)[C@@H]2C1	u	x
C[C@H](CO)N1C[C@H](C)[C@H](CN(C)C(=O)Nc2ccc(F)cc2)Oc2c(NC(=O)Nc3ccccc3)cccc2C1=O	u	x
CN(C)C(=O)C[C@@H]1CC[C@@H]2[C@H](COc3ccc(NC(=O)C4CCCC4)cc3C(=O)N2C)O1	-5	-9
CC=Cc1ccc2n(c1=O)C[C@@H]1[C@@H](CO)[C@H](C(=O)NC3CCCC3)N(Cc3ccncc3)[C@H]21 (mixture of isomers)	18	15
COc1ccc(NC(=O)N(C)C[C@H]2Oc3c(NC(=O)C4CCOCC4)cccc3C(=O)N([C@@H](C)CO)C[C@@H]2C)cc1	5	11
C[C@H]1CN([C@@H](C)CO)S(=O)(=O)c2ccc(C#CC3(O)CCCC3)cc2O[C@H]1CN(C)C	-4	-13
C[C@H]1CN([C@@H](C)CO)C(=O)c2cc(C3=CCCC3)cnc2O[C@@H]1CN(C)C(=O)Nc1cccc(F)c1	-12	-5
Cc1ccc(S(=O)(=O)N(C)C[C@@H]2OCCCC[C@H](C)Oc3ccc(NC(=O)Nc4ccc5c(c4)OCO5)cc3C(=O)N([C@H](C)CO)C[C@@H]2C)cc1	-7	-9
COc1cccc(S(=O)(=O)Nc2ccc3c(c2)[C@@H]2C[C@@H](CC(=O)N[C@@H](C)c4ccccc4)O[C@@H](CO)[C@@H]2O3)c1	-21	-21
Cc1noc(C)c1NC(=O)Nc1ccc2c(c1)C(=O)N([C@H](C)CO)C[C@H](C)[C@@H](CN(C)Cc1ccncc1)OCCCC[C@H](C)O2	19	5
C[C@@H]1CN([C@@H](C)CO)C(=O)c2cc(NS(=O)(=O)c3ccccc3)ccc2O[C@@H]1CN(C)Cc1ccc(C(=O)Nc2ccccc2N)cc1	1	1
COc1ccc(NC(=O)Nc2ccc3c(c2)CC(=O)N([C@H](C)CO)C[C@@H](C)[C@@H](CN(C)S(=O)(=O)c2ccc(Cl)cc2)O3)cc1	-13	-4
Cc1cccc(S(=O)(=O)N2CCCCN3[C@@H](CO)[C@@H](c4ccc(C#CC5CC5)cc4)[C@@H]3C2)c1	37	28
C[C@@H]1CN([C@@H](C)CO)S(=O)(=O)c2ccc(C#Cc3ccccn3)cc2O[C@H]1CN(C)Cc1ccccc1	-9	-5
COc1ccc2c3c([nH]c2c1)[C@H](CO)N(C(=O)CN(C)C)CC31CN(CC2CC2)C1	4	1
C[C@H]1CN([C@@H](C)CO)C(=O)c2cc(NC(=O)Nc3ccc(C(F)(F)F)cc3)ccc2O[C@@H]1CN(C)Cc1ccc(Oc2ccccc2)cc1	17	4
COc1ccc2c3c(n(C)c2c1)[C@@H](CO)N(Cc1cccc(F)c1)CC31CN(C(=O)Cc2ccccc2)C1	-14	-16
C[C@H]1CCCCO[C@@H](CN(C)C(=O)Nc2ccccc2)[C@@H](C)CN([C@@H](C)CO)C(=O)c2cc(NC(=O)Nc3cccc4ccccc34)ccc2O1	45	8
COc1ccc(S(=O)(=O)N(C)C[C@H]2OCCCC[C@H](C)Oc3ccc(NC(=O)Nc4c(C)noc4C)cc3C(=O)N([C@@H](C)CO)C[C@H]2C)cc1	9	6
COc1ccccc1NC(=O)N1C[C@@H]2[C@H](c3ccccc31)[C@H](CO)N2Cc1ccccc1F	-25	-13
CNC(=O)C[C@@H]1CC[C@@H]2[C@H](COc3ccc(NC(=O)c4ccc(OC)cc4)cc3C(=O)N2C)O1	-7	-17
C[C@H]1CN([C@@H](C)CO)C(=O)Cc2cc(NC(=O)Nc3ccc(C(F)(F)F)cc3)ccc2O[C@@H]1CN(C)S(=O)(=O)c1cccs1	-24	-4
COc1ccccc1-c1ccc([C@@H]2[C@H](CO)N(CC3CC3)C23CN(S(C)(=O)=O)C3)cc1	7	17
O=C(C[C@H]1CC[C@@H]2[C@H](COC[C@@H](O)CN2Cc2ccc(Cl)cc2)O1)Nc1nccs1	u	x
COc1ccc2c3c([nH]c2c1)[C@H](CO)N(Cc1nccs1)CC31CN(Cc2nccs2)C1	34	25
CO[C@H]1CC[C@H]2CCOc3c(C#N)cccc3C(=O)N(C)[C@H](C)C(=O)N(C)C[C@@H]1O2	9	7
CN1CCN(C(=O)C[C@@H]2CC[C@H]3[C@@H](COC[C@@H](O)CN3C(=O)c3ccccc3F)O2)CC1	8	2
C[C@@H]1CN([C@@H](C)CO)C(=O)Cc2cc(NC(=O)Nc3cccc4ccccc34)ccc2O[C@H]1CN(C)C(=O)Nc1ccc(F)cc1	6	14
C[C@@H]1CN([C@H](C)CO)C(=O)c2cc(NC(=O)Nc3ccc4c(c3)OCO4)ccc2O[C@H]1CN(C)Cc1ccc2c(c1)OCO2	-1	5
CC(C)NC(=O)N(C)C[C@@H]1Oc2ccc(NC(=O)Nc3cccc4ccccc34)cc2CC(=O)N([C@H](C)CO)C[C@H]1C	15	7
CN(C)CC#Cc1ccc([C@@H]2[C@H](CO)N3CCCCN(S(=O)(=O)c4ccccc4)C[C@@H]23)cc1	-9	-11
COCC#Cc1ccc2c(c1)O[C@H](CN(C)Cc1ccccn1)[C@@H](C)CN([C@@H](C)CO)S2(=O)=O	-15	-5
COc1ccc2c3c(n(C)c2c1)[C@H](CO)N(C(=O)NC(C)C)CC31CCN(CC2CCCC2)CC1	-32	-22
O=C(Nc1ccc(F)cc1)N[C@H]1CC[C@@H](CCNS(=O)(=O)c2ccccc2F)O[C@H]1CO	-1	-3
CC(C)CC#Cc1cnc2c(c1)C(=O)N([C@H](C)CO)C[C@H](C)[C@H](CN(C)Cc1cccc(F)c1)O2	-22	-15
O=C(NC1CCCC1)N1CCCCN2[C@H](CO)[C@H](c3ccc(-c4cccnc4)cc3)[C@H]2C1	-2	-5
O=C(NCc1ccncn1)[C@H]1[C@H](CO)[C@H]2Cn3c(cccc3=O)[C@@H]1N2CC1CC1	1	4

# (cont.)
# Values run as follows: Vaccinia stage, Vaccinia stage Venus
CCS(=O)(=O)Nc1ccc2c(c1)C(=O)N(C)C[C@H](OC)[C@@H](C)CN(C(=O)COC)[C@@H](C)CO2
→ -6, -4
CO[C@@H]1CN(C)C(=O)c2ccc(NC(C)=O)cc2OC[C@H](C)N(C(=O)c2ccc(F)cc2)C[C@@H]1C
→ -1, 2
N#Cc1ccc(-c2ccc([C@H]3[C@@H](CO)N4CCCCN(C(=O)Cc5ccccc5)C[C@H]34)cc2)cc1
→ u, x
C[C@@H]1CN([C@H](C)CO)S(=O)(=O)c2ccc(C3=CCCC3)cc2O[C@@H]1CN(C)C(=O)CN(C)C
→ -23, -14
COC(=O)C(CC#Cc1ccc2c(c1)[C@]1(C(=O)N2)[C@H](c2ccccc2OCCO)N2[C@H](c3ccccc3)[C@H](c3ccccc3)OC(=O)[C@H]2[C@@H]1C(=O)NC[C@H](O)c1ccccc1)C(=O)OC
→ 14, 13
C[C@H](CO)N1C[C@H](C)[C@H](CN(C)Cc2cccc(C(=O)O)c2)OCc2cn(nn2)CCCC1=O
→ 4, 6
C/C=C/c1ccc([C@H]2[C@H]3CN(C(=O)c4cnccn4)CC(=O)N3[C@H]2CO)cc1
→ 16, 10
CO[C@@H](CN(C)Cc1ccc(-c2ccccn2)cc1)[C@@H](C)CN(C(=O)Nc1ccc(F)cc1)[C@H](C)CO
→ -1, 9
COc1ccc(S(=O)(=O)N(C)C[C@H]2Oc3ccc(NS(=O)(=O)c4ccc(C)cc4)cc3C(=O)N([C@@H](C)CO)C[C@@H]2C)cc1
→ 8, 8
C[C@@H]1CCCCO[C@H](CN(C)Cc2ccc3c(c2)OCO3)[C@H](C)CN([C@H](C)CO)C(=O)c2cc(NC(=O)c3ccncc3)ccc2O1
→ -9, -8
C[C@H]1CN([C@@H](C)CO)C(=O)c2cccc(NC(=O)c3cnccn3)c2O[C@@H]1CN(C)C(=O)NC1CCCCC1
→ 0, 8
C[C@H](CO)N1C[C@H](C)[C@@H](CN(C)C(=O)C2CCCCC2)Oc2cc(-c3ccc(F)cc3)ccc2S1(=O)=O
→ u, x
O=C(Cc1cccnc1)N[C@@H]1CC[C@H](CCn2cc(-c3ccccc3F)nn2)O[C@H]1CO
→ 5, 1
C[C@H](CO)N1C[C@H](C)[C@H](CN(C)Cc2ccc(C(=O)O)cc2)Oc2ccc(NC(=O)Nc3ccc(C(F)(F)F)cc3)cc2C1=O
→ 6, 3
COc1cc(CN2CC3(CCN(C(=O)Nc4c(C)noc4C)CC3)c3c([nH]c4cc(OC)ccc34)[C@H]2CO)cc(OC)c1
→ 9, 3
O=C(N[C@H]1CC[C@H](CC(=O)N2CCc3ccccc3C2)O[C@@H]1CO)C1CCC1
→ 10, 2
CC(C)NC(=O)Nc1ccc2c(c1)CC(=O)N([C@H](C)CO)C[C@H](C)[C@H](CN(C)Cc1ccc(Oc3ccccc3)cc1)O2
→ -28, -30
COCC(=O)N(C)C[C@@H]1Oc2ncc(C3=CCCC3)cc2C(=O)N([C@H](C)CO)C[C@H]1C
→ 4, 8
COc1cccc(S(=O)(=O)N2C[C@H](O)COC[C@H]3O[C@@H](CC(=O)N4CCCCC4)CC[C@@H]32)c1
→ 6, 1
O=C(Nc1cccc(Cl)c1)N[C@@H]1CC[C@H](CCNC(=O)C2CCC2)O[C@H]1CO
→ -3, 0
COc1ccc(-c2cn(CC[C@H]3CC[C@H](N)[C@@H](CO)O3)nn2)cc1
→ -4, 5
O=S(=O)(Cc1ccccc1)N1CCCCN2[C@H](CO)[C@H](c3ccc(-c4ccncc4)cc3)[C@@H]2C1
→ -21, -35
C[C@@H](O)C#Cc1cnc2c(c1)C(=O)N([C@@H](C)CO)C[C@H](C)[C@@H](CN(C)C(=O)c1ccncc1)O2
→ 14, 10
Cc1noc(C)c1S(=O)(=O)Nc1ccc2c(c1)C(=O)N([C@@H](C)CO)C[C@H](C)[C@@H](CN(C)CC1CCCCC1)OCCCC[C@H](C)O2
→ u, x
C[C@@H]1CN([C@@H](C)CO)C(=O)c2cc(NC(=O)Nc3cccc4ccccc34)ccc2O[C@@H](C)CCCCO[C@H]1CN(C)C(=O)Nc1ccccc1
→ 43, 20
C[C@H](CO)N1C[C@H](C)[C@@H](CN(C)S(=O)(=O)c2ccc(Cl)cc2)Oc2ccc(NC(=O)CCC(F)(F)F)cc2C1=O
→ -9, 2
COc1ccc(S(=O)(=O)Nc2ccc3c(c2)C(=O)N([C@H](C)CO)C[C@H](C)[C@@H](CN(C)C(=O)Nc2ccc(F)cc2)OCCCC[C@H](C)O3)cc1
→ -25, -18

# Only part of the results is shown; rates above refer to the full screens.
